Source: PubChem (several laboratories)
YopH PTP inh – inhibitors of Yersinia enterocolitica YopH tyrosine phosphatase; fluorescence Ex485/Em525; inhibition, %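 (about 10 µM by stock and volumes)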; actives 0.16% (n = 140,000);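 active = inhibition of 50% or more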;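 also: controls were vehicle for no effect and minimum signal wells for full effect; inactives centre near -20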
Mtb bLac sens – beta-lactam sensitization of Mtb H37Rv. M. tuberculosis H37Rv growth with meropenem, percent inhibition; hits of this screen are not shown here. inhibition, % at 25 µM. actives 0.27% (n = 330,000);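 active = about 74% or more and at least 40 points above the plate without the antibiotic, then above 30% in a dose series; inconclusive = first-round hits that could not be retested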;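 also: growth measured after seven days incubation then overnight dye step; 0% = bacteria only wells and 100% = bacteria with antibiotic; twin plates without the antibiotic show which effects depend on it; some results filed as inactive read as strong as hits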
Mtb H37Rv – M. tuberculosis H37Rv growth inhibitors, H37Rv strain (AID 1626); M. tuberculosis H37Rv growth inhibition; higher % means a stronger effect; inhibition, % at 10 µM, or IC50 in µM where a hit was titrated; actives 0.95% (n = 220,000);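 active = confirmed in a dose series; inconclusive = inhibition above 80% but not taken into the dose series; inactive = below 80% or under 30% at every dose of the series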;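 also: bacteria incubated seven days before Alamar blue readout; 0% = bacteria only wells and 100% = bacteria with antibiotic wells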
Arbovirus anti – antivirals against arbovirus infection | actives 0.37% (n = 200,000) | arbovirus infection cell-based antiviral screen | inhibition, % at 10 µM;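 active = inhibition from about 30%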;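 also: bluetongue infection of BSR cells; cell survival read as ATP light after 72 h; 0% = infected wells without compound and 100% = uninfected wells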
RecA splice inh – blocks M. tuberculosis RecA intein splicing. P9WHJ3. cell-free RecA intein splicing, fluorescence. inhibition, %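 (about 9 µM by stock and volumes)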. actives 0.75% (n = 290,000); in the data active = inhibition above about 30%; inconclusive = no clear call, values can overlap the other calls;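 also: 0% = vehicle wells and 100% = reference inhibitor control wells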
Target sequence (P9WHJ3 whole entry, looked up, canonical isoform): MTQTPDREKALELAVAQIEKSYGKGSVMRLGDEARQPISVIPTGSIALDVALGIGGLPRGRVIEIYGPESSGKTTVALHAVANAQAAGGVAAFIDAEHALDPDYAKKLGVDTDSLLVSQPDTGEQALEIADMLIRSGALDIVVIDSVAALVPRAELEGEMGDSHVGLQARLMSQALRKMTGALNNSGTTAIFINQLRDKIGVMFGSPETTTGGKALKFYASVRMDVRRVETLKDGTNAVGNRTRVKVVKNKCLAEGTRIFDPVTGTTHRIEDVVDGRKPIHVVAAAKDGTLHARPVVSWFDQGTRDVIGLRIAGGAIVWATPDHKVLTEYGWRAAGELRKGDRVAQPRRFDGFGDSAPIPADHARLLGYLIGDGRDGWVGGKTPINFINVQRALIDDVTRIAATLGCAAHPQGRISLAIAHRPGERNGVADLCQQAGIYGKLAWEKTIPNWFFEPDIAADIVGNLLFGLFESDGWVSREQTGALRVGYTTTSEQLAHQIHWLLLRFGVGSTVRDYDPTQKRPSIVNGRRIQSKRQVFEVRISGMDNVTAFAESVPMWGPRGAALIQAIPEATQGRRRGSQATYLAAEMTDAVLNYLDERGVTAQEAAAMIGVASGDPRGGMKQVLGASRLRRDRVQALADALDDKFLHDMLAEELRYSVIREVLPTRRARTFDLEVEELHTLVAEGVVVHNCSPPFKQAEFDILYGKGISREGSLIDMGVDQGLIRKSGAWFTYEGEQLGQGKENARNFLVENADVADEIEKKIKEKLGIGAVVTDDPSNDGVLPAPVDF
Arbovirus anti repeat – further read-out of Arbovirus anti, marked with its call; inhibition, %; measured here: 10K subset replicate screen; many hits read low in the repeat;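 first of two repeat runs on a subset; 0% = infected and 100% = uninfected wells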
* marks the source's active call; other numbers are inactive results; ? = inconclusive; · = no result given.

SMILES | YopH PTP inh | Mtb bLac sens | Mtb H37Rv | Arbovirus anti | RecA splice inh | others
Cc1nc(CSc2ccc(Cl)cc2)cc(N2CC(C)OC(C)C2)n1 (stereo not drawn) | · | 2.8 | 0.0% | 17.6 | 3.0
O=C(NC1CCSc2ccccc21)c1ccc(F)c(S(=O)(=O)N2CCOCC2)c1 (stereo not drawn) | · | 5.7 | · | · | 4.6
CCC(Sc1nc2ncnc(N)c2[nH]1)C(=O)O (stereo not drawn) | · | 4.1 | 6.2% | 4.3 | -5.4
Cc1cc(C)cc(NC(=O)c2cc(S(=O)(=O)N3CCCC3)cn2C)c1 | · | -0.9 | · | · | 0.3
CCC(c1nnnn1C1CCCCC1)N(Cc1ccco1)Cc1cc2ccc(OC)cc2[nH]c1=O (stereo not drawn) | -5.4 | · | 11.3% | -35.0 | ·
CN(C(=O)C1CCCN(c2ncnc3c2nc2n3CCCCC2)C1)c1cccc(Cl)c1 (stereo not drawn) | · | 7.3 | · | · | 5.5
OCC1(CCOc2ccccc2)CCN(Cc2cn[nH]c2-c2ccc(F)cc2)CC1 | · | -9.2 | 3.2% | -4.7 | 3.9
CC(C)CC(NC(=O)CCl)c1ccccc1 (stereo not drawn) | -22.2 | 92.9 | 1.3% | 8.7 | 43.6*
COc1cccc(-c2cccc(NC(=O)C3CCN(C4CCC4)CC3)c2)c1 | · | ? | · | · | 0.8
CCOCCOC(=O)C1=C(C)Nc2ccc(C)cc2S1 | -25.4 | 6.7 | 2.5% | -9.1 | -3.4
CCN(CC)S(=O)(=O)c1ccc(N2CCOCC2)c(NC(=O)Cc2ccc(Cl)cc2)c1 | -11.6 | 0.7 | 3.4% | 1.9 | 3.2
O=C(O)[C@H]1C[C@@H]1[C@H](NP(=O)(c1ccccc1)c1ccccc1)c1ccccc1 | 23.6 | -6.6 | -13.1% | 3.4 | 1.3
Cc1ccc(CNC(=O)C2CC(c3cc(C(F)(F)F)cc(C(F)(F)F)c3)=NO2)o1 (stereo not drawn) | · | -4.8 | -4.5% | · | -0.5
COc1ccccc1NC(=S)NN1CCN(C)CC1 | -28.4 | 4.9 | 1.6% | 5.8 | 4.7
CCc1ccccc1NC(=O)CC(c1ccc(OC)cc1)n1cccc1 (stereo not drawn) | -16.0 | 2.9 | 4.2% | 1.0 | -0.8
O=C(CN1C(=O)c2cccnc2Oc2ccc(Cl)cc21)NC1CCCC1 | · | ? | · | · | 2.9
COc1ccccc1NS(=O)(=O)c1cccc(C(=O)N2CCN(C/C=C/c3ccccc3)CC2)c1 | · | -3.8 | · | · | -4.0
O=C(NNc1ncnc2c1cnn2-c1ccc(F)cc1)c1ccco1 | · | -5.9 | · | · | 3.3
Cc1c(C)n(CC(O)CNc2ccccc2)c2ccccc12 (stereo not drawn) | · | 13.5 | 13.0% | -0.6 | 2.9
CCOC(=O)CN1C(c2ccccc2O)Nc2ccc(Br)cc2C1c1ccccc1 (stereo not drawn) | -22.4 | -4.5 | 6.1% | -14.4 | 8.7
CCN(Cc1ccncc1)C(=O)Cc1cccs1 | · | -4.6 | · | · | -1.2
CCCCn1c(N)c(N(CCOC)C(=O)CCCc2cccs2)c(=O)[nH]c1=O | · | -0.3 | · | · | -1.1
Cc1ccc(C(=O)N2CCC(C(=O)NCc3cccnc3)CC2)cc1 | -17.3 | 3.3 | -3.1% | -2.0 | 1.5
O=C(Nc1nncs1)C1CC(=O)N(C2CCCC2)C1 (stereo not drawn) | · | -9.8 | · | · | -4.4
COc1ccc(NS(=O)(=O)c2cccc(C(=O)Nc3cccc(C(=O)O)c3)c2)cc1 | · | -1.7 | · | · | 0.1
O=C(O)CC1S/C(=N\N=C2CCCCCCC2)N(c2ccccc2)C1=O (stereo not drawn) | · | -5.4 | -2.5% | 11.8 | 1.3
COc1ccc(Cl)cc1NC(=O)N1CCC(C)CC1 | · | -5.0 | -7.4% | -2.5 | 2.7
N/C(CC(=O)Nc1cccc(C(F)(F)F)c1)=N/O | -37.1 | -2.0 | 8.9% | -2.7 | -2.5 | Arbovirus anti repeat=-4.1
CCCNC(=O)CS(=O)Cc1nc(-c2ccc(OC)cc2)oc1C (stereo not drawn) | · | 1.4 | -4.7% | 9.0 | 0.3 | Arbovirus anti repeat=1.7
CC(C)c1cc(C(C)C)c(S(=O)(=O)N2c3ccccc3[C@]3(Br)C[C@H]4C(=O)N[C@@H](Cc5ccccc5)C(=O)N4[C@H]23)c(C(C)C)c1 | · | · | 20.4% | · | 4.7
COC(=O)c1c(NS(=O)(=O)c2ccc3ccccc3c2)sc2c1CCCC2 | -7.7 | 39.2 | -6.5% | -6.4 | 0.3
CSc1c(CC(=O)Nc2ccccc2Cl)n(Cc2ccccc2)c2ccccc12 | -7.2 | 5.6 | 6.2% | -3.6 | 0.0
Cc1ccc(-c2csc(NC(=O)c3cccs3)n2)cc1 | 22.0 | 4.0 | 10.8% | 103.1* | 2.7
COc1ccc(/C=N/NC(=O)C2(C)NC(C)(C)Cc3ccccc32)cc1 (stereo not drawn) | · | 0.5 | -3.2% | 7.3 | ·
Cc1ccc2c(c1)N(CCC(=O)NC1CCCCC1C)C(=O)CO2 (stereo not drawn) | · | 0.5 | · | · | -0.4
CCOc1ccccc1Nc1nc(N)nc(CN(C)C2CCCCC2)n1 | -6.0 | 85.3 | 7.7% | 7.9 | ·
CC1(C)C(=O)NCCN1C(=O)CCCC(=O)O | · | 4.4 | 9.0% | 0.6 | -1.1
COc1ccc(CCNCc2ccncc2)cc1OC | -1.3 | 18.1 | -4.4% | 2.2 | 0.0
O=c1cc(CN2CCN(S(=O)(=O)c3ccccc3[N+](=O)[O-])CC2)nc2sccn12 | · | -2.2 | 1.1% | 4.8 | -2.0
O=C(COC(=O)COc1ccccc1)NC1CCCc2ccccc21 (stereo not drawn) | -10.4 | 2.9 | 7.3% | 3.0 | -1.7

Filtered by structure: the entries above with a furan ring, fused or not (three)
SMILES | YopH PTP inh | Mtb bLac sens | Mtb H37Rv | Arbovirus anti | RecA splice inh | others
CCC(c1nnnn1C1CCCCC1)N(Cc1ccco1)Cc1cc2ccc(OC)cc2[nH]c1=O (stereo not drawn) | -5.4 | · | 11.3% | -35.0 | ·
Cc1ccc(CNC(=O)C2CC(c3cc(C(F)(F)F)cc(C(F)(F)F)c3)=NO2)o1 (stereo not drawn) | · | -4.8 | -4.5% | · | -0.5
O=C(NNc1ncnc2c1cnn2-c1ccc(F)cc1)c1ccco1 | · | -5.9 | · | · | 3.3

Four compounds from above, arranged by heavy-atom count, smallest number first:
SMILES | YopH PTP inh | Mtb bLac sens | Mtb H37Rv | Arbovirus anti | RecA splice inh | others
COc1ccc(Cl)cc1NC(=O)N1CCC(C)CC1 | · | -5.0 | -7.4% | -2.5 | 2.7
Cc1ccc(C(=O)N2CCC(C(=O)NCc3cccnc3)CC2)cc1 | -17.3 | 3.3 | -3.1% | -2.0 | 1.5
CCOc1ccccc1Nc1nc(N)nc(CN(C)C2CCCCC2)n1 | -6.0 | 85.3 | 7.7% | 7.9 | ·
CCCCn1c(N)c(N(CCOC)C(=O)CCCc2cccs2)c(=O)[nH]c1=O | · | -0.3 | · | · | -1.1

Remaining list, next part.
SMILES | YopH PTP inh | Mtb bLac sens | Mtb H37Rv | Arbovirus anti | RecA splice inh | others
CCc1nc(NCCCn2ccnc2)c2oc3ccccc3c2n1 | -30.2 | -14.3 | -11.5% | -1.1 | -0.5
CC(C)NC(=S)N1CCN(C/C=C/c2ccccc2)CC1 | · | -7.9 | -7.7% | 8.2 | 1.1
CCOC(=O)/C(C#N)=C1\Nc2ccccc2N=C1N(CC(C)C)CC(C)C | -10.7 | 17.3 | 8.5% | -42.9 | -6.4
N#CCCN(Cc1ccccc1)C(=S)Nc1ccc(F)cc1 | · | -6.1 | 9.7% | · | -1.1
CC(C)(C)c1nc2c(s1)CCc1onc(-c3ccc(Cl)cc3)c1-2 | · | 20.6 | · | · | 1.2
COc1cc(/C=C/C(=O)OCC(=O)Nc2cc(C(F)(F)F)ccc2N2CCOCC2)ccc1O | -3.9 | 2.4 | 4.2% | -8.7 | -0.1
CC(C)(C)c1ccccc1NC(=O)c1c(O)c2cccc3c2n(c1=O)CC3 | · | -5.0 | -1.8% | -23.1 | 7.9
CCN(CC)S(=O)(=O)c1cccc(C(=O)Nc2nc3cc4c(cc3s2)OCCO4)c1 | -32.6 | -1.6 | 3.8% | -2.1 | -4.4
CC(C)C[C@H]1COCCS(=O)(=O)N1Cc1cccc(C(F)(F)F)c1 | · | -2.7 | -0.4% | · | -2.5
O=c1c2cc(NC(=S)NCCCN3CCC(Cc4ccccc4)CC3)ccc2nc2n1CCCCC2 | · | 51.9 | 9.1% | -29.6 | 1.0
COc1ccc2c(c1)CCC1C2=NN(/C(C)=C/C(C)=O)C1c1cccc(F)c1 (stereo not drawn) | · | 15.4 | -4.1% | -17.9 | 9.6
Cc1cc(C)c(S(=O)(=O)N(C)CC(=O)NCCN2CCOCC2)c(C)c1 | · | -1.6 | · | · | -5.1
S=c1[nH]nc(CCc2nc3ccccc3[nH]2)n1-c1cccc(Cl)c1 | · | 1.7 | -9.6% | 4.0 | -1.5
CCOC(=O)[C@@]12C(=O)C(=O)N[C@]1(c1ccccc1)C1OCCCC12 (stereo partly drawn) | -10.1 | -4.2 | -8.8% | -2.6 | -3.6
Cn1cnc([N+](=O)[O-])c1Sc1ccc(Br)cc1 | -11.7 | 97.2 | 71.3% | -31.1 | 25.4
COc1ccc(C)cc1S(=O)(=O)N(CC(=O)NCc1ccc(Cl)cc1)Cc1ccccc1 | -19.9 | 5.5 | 12.2% | -17.0 | 10.1
O=C(COc1ccc2c3c(c(=O)oc2c1)CCC3)N[C@@H](CSCc1ccccc1)C(=O)O | · | -8.1 | · | · | 0.1
Cn1c(=O)n(Cc2ccccc2F)c2ccccc21 | -14.9 | 1.1 | -4.4% | -3.1 | -1.1
CCOCCOc1cccc(C(=O)NC(C)c2ccc3ccccc3c2)c1 (stereo not drawn) | · | 3.4 | · | · | -1.2
CC1(C(=O)O)CCC(C(N)=O)C1(C)C (stereo not drawn) | · | 3.5 | -17.3% | · | -1.2
CCCCC1=CC2=CC(=O)C(C)(OC(=O)CC)C(=O)C2=CN1CCCCO (stereo not drawn) | · | -1.3 | -13.0% | · | 5.0
CCOC(=O)c1cnc2ccc(Cl)cc2c1Nc1ccc(S(=O)(=O)Nc2ncccn2)cc1 | 5.0 | -11.1 | -4.2% | -5.3 | -0.9
O=C(Nc1ccccc1)C1CCN(C(=O)c2ccc(Br)cc2)CC1 | · | ? | · | · | -0.4
O=C(CNC(=O)c1ccc(Cl)cc1)OCc1nc2ccccc2s1 | -9.1 | -0.8 | 98.5% | 1.4 | -1.6
Cc1cc(OCC(=O)OC(C)(C)C)c2c3c(c(=O)oc2c1)CCC3 | · | -5.0 | -9.0% | 5.2 | -4.7 | Arbovirus anti repeat=1.3
CCN(CC)c1ccc(/C=N/N=C(N)N)c(O)c1 | · | -1.9 | 0.7% | -16.5 | -3.0
CCOc1ccc(-c2c(C)n([O-])c3c([n+]2=O)CCCC3)cc1 | -27.3 | -6.0 | 2.9% | 0.9 | -0.4
Cc1ccc(C)c(SCC(=O)OC/C(O)=C(\C#N)c2nc3ccccc3[nH]2)c1 | · | · | 3.09µM* | -38.6 | -1.6
COc1cccc(CNC(=O)CN2C(=O)COc3ccc(S(=O)(=O)N4CCCCC4)cc32)c1 | · | -4.2 | · | · | 1.5
O=C(NCc1ccco1)/C(=C\C=C\c1ccccc1)NC(=O)c1ccccc1Br | · | 6.3 | 9.3% | -4.4 | 1.3
CCC(=O)Nc1cccc(-c2cnc3ccccc3n2)c1 | 2.5 | 11.8 | 8.4% | -2.7 | -1.1
COC(=O)C1C(=O)C2=C(CC1C)Nc1ccccc1NC2c1ccc(C)s1 (stereo not drawn) | · | -3.8 | 3.0% | 0.7 | -1.5
O=C(c1ccccc1[N+](=O)[O-])N1CC2C3C=CC(C3)C2C1 (stereo not drawn) | · | -4.9 | 1.8% | -2.3 | -0.4
Brc1ccc(-c2noc(CCc3ccccc3)n2)cc1 | -10.7 | 15.8 | -8.2% | · | ·
O=C(NNC(=O)C12CC3CC(CC(Cl)(C3)C1)C2)c1csc(N2CCOCC2)n1 | · | -7.5 | · | · | 0.2
CC1(C)CC(C)(O)P(=O)(c2ccccc2)O1 (stereo not drawn) | -21.3 | -5.9 | -2.1% | 8.1 | ·
CC(C)C[C@H](NC(=O)NC(C)C)C(=O)O | -37.1 | -2.5 | -1.7% | -2.5 | -1.3
Cc1cc([N+](=O)[O-])nn1CCCC(=O)Nc1cc(Oc2ccccc2)cc([N+](=O)[O-])c1 | -21.1 | 99.1 | 33.1% | -26.2 | 4.6

Some of the compounds tested; the hit share may differ from the screen's.
